Screening results deposited in PubChem BioAssay by several laboratories.
HSV augment = increases HSV replication in cells; HSV replication augmentation in cells, fold increase; maximum fold increase; 220,000 compounds, 0.005% hits; AID 1956;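 active means peak rise of 1.5-fold or more in the series; inconclusive means self-fluorescent or not available for retest; tested in PC3 cells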;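 further: first round at 10 µM; read as green reporter fluorescence; hits show the peak of a series up to 25 µM; 1 = signal of infected wells without compound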
GALR2 ag = GALR2 (human) receptor agonism; O43603; activation, %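 (tested at 5 µM)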; GALR2-expressing cells, agonist activation read-out; 140,000 compounds, 0.48% hits;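 active means above mean plus 3 SD of all compounds, about 5% in these data, not always enough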;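 further: 0% = vehicle buffer wells and 100% = reference agonist at full effect; tested in CHO reporter cells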
Target sequence (O43603 whole entry, looked up): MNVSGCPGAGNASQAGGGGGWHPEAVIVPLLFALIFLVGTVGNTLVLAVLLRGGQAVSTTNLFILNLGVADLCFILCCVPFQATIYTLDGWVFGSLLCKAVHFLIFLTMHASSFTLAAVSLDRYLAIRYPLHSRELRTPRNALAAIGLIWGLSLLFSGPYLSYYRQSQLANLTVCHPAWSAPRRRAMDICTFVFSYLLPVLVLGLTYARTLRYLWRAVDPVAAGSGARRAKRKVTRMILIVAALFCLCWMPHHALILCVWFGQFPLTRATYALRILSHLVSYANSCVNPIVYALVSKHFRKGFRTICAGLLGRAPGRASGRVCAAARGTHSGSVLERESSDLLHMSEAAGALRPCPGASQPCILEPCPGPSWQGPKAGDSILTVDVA
RGS16-Gao HTS = regulators of human RGS16-Galphao interaction; O15492+P09471; bead-based flow cytometry RGS16-Galphao binding, fluorescence; actives lie on both sides; binding response (% of control), % at 10 µM; 220,000 compounds, 0.38% hits;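 active means below 25% or above 175%, edge rows of some plates excepted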;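 further: Galphao activated by GDP with aluminum fluoride before binding; 100% = wells without compound and 0% = beads without RGS; some results beyond the cut were filed as inactive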
Target sequence (O15492 whole entry, looked up): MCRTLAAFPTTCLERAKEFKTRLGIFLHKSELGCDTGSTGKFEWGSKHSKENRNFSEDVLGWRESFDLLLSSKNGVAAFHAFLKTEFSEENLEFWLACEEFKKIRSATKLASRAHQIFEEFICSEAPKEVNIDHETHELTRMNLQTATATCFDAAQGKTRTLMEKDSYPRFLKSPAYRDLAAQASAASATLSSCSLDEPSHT
Target sequence (P09471 whole entry, looked up): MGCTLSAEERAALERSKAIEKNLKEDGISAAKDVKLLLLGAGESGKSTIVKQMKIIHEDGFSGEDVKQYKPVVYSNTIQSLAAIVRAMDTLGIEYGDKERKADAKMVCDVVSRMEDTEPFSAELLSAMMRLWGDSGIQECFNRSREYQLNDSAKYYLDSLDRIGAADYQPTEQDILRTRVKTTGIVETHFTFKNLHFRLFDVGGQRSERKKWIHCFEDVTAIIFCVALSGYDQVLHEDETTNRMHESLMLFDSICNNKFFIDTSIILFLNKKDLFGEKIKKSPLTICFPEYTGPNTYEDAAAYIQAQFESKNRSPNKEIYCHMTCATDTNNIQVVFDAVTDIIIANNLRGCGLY
PKD1 inh = inhibitors of human PKD1 kinase; PKD1 kinase fluorescence polarization assay; Q15139; 200,000 compounds, 0.056% hits; inhibition, %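 (about 10 µM by stock and volumes)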;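 active means inhibition of 50% or more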;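 further: controls were vehicle for no effect and a reference inhibitor for full effect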
INS promoter inh = TRM-6 insulin promoter activity inhibition; TRM-6 cells (human fetal islet line), insulin promoter-eGFP reporter, imaging; reporter expression induced with tamoxifen; inhibition, % at 2 µM; 130,000 compounds, 0.9% hits; AID 1273;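 active means inhibition above the mean plus 3 SD, with well images judged a real hit on visual review, cut at about 60% in these data, passing the limit was not always enough; inconclusive means inhibition over the cutoff but images rejected on review; inactive means inhibition not above the cutoff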
INS promoter inh cell count = also measured in INS promoter inh; calls as there; normalized cell count, %; measured here: cell count, toxicity; reference of the scale not given here;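 cells exposed to compound for 48 h; stained nuclei by imaging scaled within each plate; lower means fewer cells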
HSV augment primary fold = recorded beside HSV augment, whose call it bears; fold increase; compound at 10 µM; measured here: primary screen fold increase 10 uM; tested in PC3 cells;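 GFP signal in the first replicate; 1 = infected wells without compound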
* marks the source's active call; other numbers are inactive results; i = inactive; u = inconclusive; x = no result given; & = joins results of further samples.

SMILES | HSV augment | HSV augment primary fold | GALR2 ag | RGS16-Gao HTS | PKD1 inh | INS promoter inh | INS promoter inh cell count
CN(C)CCNC(=O)Cc1ncc(C(F)(F)F)cc1Cl | i | 1 | x | 117 | -2 | -27 | 130
CCN(CC)c1ccc(/C=N/NC(=O)c2cccc(S(=O)(=O)N3CCOCC3)c2)cc1 | i | 0.95 | -1.4 | 104 | 1 | 25 | 87
Cc1ccc(OCC(=O)N2N=C(c3cccnc3)CC2(O)C(F)(F)F)cc1C (stereo unspecified) | i | 0.99 | 0.1 | 105 | 9 | x | x
CN1CCc2c(sc3c2C(=O)NC(c2ccco2)N3)C1 (stereo unspecified) | i | 0.81 | 1.6 | 100 | 2 | 0 | 33
COc1cccc(N=C(N)N)c1 | i | 1 | x | 111 | -2 | -7 | 82
S=c1[nH]nc(-c2ccc3ccccc3n2)n1-c1cc(Cl)cc(Cl)c1 | i | 0.97 | 0.1 | 100 | 1 | 6 | 109
O=C(Nc1ccc(F)cc1)C1C(c2ccccc2)C1(Cl)Cl (stereo unspecified) | i | 0.9 | -1.8 | 112 | 3 | 13 | 53
Cc1ccc(-c2n[nH]c(=O)c3ccccc23)cc1S(=O)(=O)NC(C)(C)C | i | 0.88 | x | 101 | 2 | 33 | 133
O=c1c(CN2CCN(Cc3ccccc3)CC2)coc2ccc(Cl)cc12 | i | 0.95 | -0.1 | 101 | -4 | 3 | 164
CCCCc1ccc(NC=C2C(=O)OC3(CCCCC3)OC2=O)cc1 | i | 0.95 | -4.2 | 101 | 5 | -25 | 99
CCN(c1ccccc1)S(=O)(=O)c1cc(C(=O)OC(C)C(=O)Nc2ccc3c(c2)OCCO3)ccc1C (stereo unspecified) | i | 0.9 | x | 100 | -5 | x | x
CCCCCCN1C=C/C(=C\C=C(C#N)C#N)c2ccccc21 | u | x | -0.6 | 15 | 8 | x | x
Cn1c(=O)[nH]c(=O)c2c1nc(CN(Cc1ccccc1)Cc1ccccc1)n2CCN1CCOCC1 | i | 0.93 | -1.6 | 102 | -7 | 3 | 65
O=S(=O)(Cc1ccc(Cl)cc1)c1ncc(CO)n1Cc1ccccc1 | i | 0.96 | x | 105 | -4 | x | x
CCn1c(Cn2nnc(-c3ccccc3)n2)nnc1SCC(=O)Nc1ccc(N(C)C)cc1 | i | 0.64 | -1.1 | 98 | -10 | -11 | 112

Molecules listed so far with a carbonyl joined to an NH by a bond outside any ring:
SMILES | HSV augment | HSV augment primary fold | GALR2 ag | RGS16-Gao HTS | PKD1 inh | INS promoter inh | INS promoter inh cell count
CN(C)CCNC(=O)Cc1ncc(C(F)(F)F)cc1Cl | i | 1 | x | 117 | -2 | -27 | 130
CCN(CC)c1ccc(/C=N/NC(=O)c2cccc(S(=O)(=O)N3CCOCC3)c2)cc1 | i | 0.95 | -1.4 | 104 | 1 | 25 | 87
O=C(Nc1ccc(F)cc1)C1C(c2ccccc2)C1(Cl)Cl (stereo unspecified) | i | 0.9 | -1.8 | 112 | 3 | 13 | 53
CCN(c1ccccc1)S(=O)(=O)c1cc(C(=O)OC(C)C(=O)Nc2ccc3c(c2)OCCO3)ccc1C (stereo unspecified) | i | 0.9 | x | 100 | -5 | x | x
CCn1c(Cn2nnc(-c3ccccc3)n2)nnc1SCC(=O)Nc1ccc(N(C)C)cc1 | i | 0.64 | -1.1 | 98 | -10 | -11 | 112

(further entries)
SMILES | HSV augment | HSV augment primary fold | GALR2 ag | RGS16-Gao HTS | PKD1 inh | INS promoter inh | INS promoter inh cell count
O=C(CSc1nnc(-c2cccs2)o1)NCc1ccco1 | i | 1.1 | x | 97 | 5 | 40 | 62
Cc1[nH]nc(N2CCCCCC2)c1[N+](=O)[O-] | i | 0.95 | -3.6 | 96 | -7 | 30 | 102
Cc1sc2ncnc(OCc3nnc(-c4cccs4)o3)c2c1C | i | 0.94 | x | 102 | -5 | -29 | 58
COc1ccccc1NS(=O)(=O)c1cccc(C(=O)NNC(=O)C(NC(N)=O)C(C)C)c1 (stereo unspecified) | i | 0.95 | x | 103 | x | x | x
O=C(NN1C(=O)c2ccccc2NC1c1ccccn1)c1ccc([N+](=O)[O-])cc1 (stereo unspecified) | i | 0.99 | -1.0 | 91 | 5 | 3 | 73
CCOC(=O)c1c(C)n(-c2ccc(C)cc2)c2c(CC(C)=O)c(Br)c(OC)c(O)c12 | i | 0.96 | -0.8 | 96 | -1 | 4 | 75
O=C(NC(Cc1ccccc1)C(=O)O)OCc1ccccc1 (stereo unspecified) | i | 1 | -1.3 | 109 | -4 | 16 | 90
Cc1nn(-c2ccccc2)c(Cl)c1CN(C(=O)CCl)c1ccc(Cl)cc1 | i | 0.99 | -2.1 | 135 | -4 | x | x
CCn1c(=O)c2c(nc3n2CCCN3c2cccc(C)c2)n(C)c1=O | i | 0.9 | x | 91 | x | x | x
CC1=C(C(N)=O)C(c2cccs2)n2nc(-c3cccc(Cl)c3)nc2N1 (stereo unspecified) | i | 0.83 | 1.7 | 106 | 6 | 44 | 112
Cc1cc2c3c(c1)C1(C(=O)N3C(C)(C)CC2C)C(C#N)=C(N)Oc2cc(O)ccc21 (stereo unspecified) | i | 0.81 | -2.6 | 103 | -1 | -216 | 88
Cc1cccc(CS(=O)(=O)Cc2ccc(C(=O)NCCCN3CCOCC3)o2)c1 | x | x | -1.2 | 120 | 1 | x | x
COc1ccc(/C=C2\CCOC2=O)cc1 | i | 0.88 | -3.2 | 110&98 | -3 | 49 | 131
CCOCc1cc(C)[nH]c(=O)c1C#N | x | x | -2.9 | 113 | 26 | -12 | 111
O=C(CCn1c(=O)oc2ccccc21)N1CCN(C(c2ccccc2)c2ccccc2)CC1 | x | x | -2.0 | 101 | -4 | x | x
O=C(O)C1C2C=CC3(O2)C1C(=O)N1c2ccccc2C2OCCC2C13 (stereo unspecified) | i | 1 | -0.3 | 108 | -8 | -15 | 70
COc1cc(OC)c(OC)cc1/C=N/NC(=O)c1ccc2nc[nH]c2c1 | i | 1 | x | 95 | x | x | x
c1ccc(Nc2nc(NCc3ccco3)c3ccccc3n2)cc1 | i | 0.85 | x | 100 | x | x | x
CN1C(=O)C(CC(=O)Nc2ccc(Cl)cc2)N(Cc2ccco2)C1=S (stereo unspecified) | i | 0.89 | x | 100 | 1 | x | x
CCOc1ccc(NC2=NCCC(=O)N2Cc2cccs2)cc1 | i | 0.98 | -3.2 | 100 | 0 | 3 | 80
CCOc1ccc(Cc2nc(N)nc(N)n2)cc1 | i | 0.7 | -3.0 | 100 | -6 | 19 | 92
COc1ccc(NC(=S)NCC(c2cccnc2)N2CCOCC2)cc1 (stereo unspecified) | i | 0.89 | x | 101 | -1 | 40 | 141
Cn1c(Cc2ccc3c(c2)OCO3)nnc1SCC(=O)NC(C)(C)C | i | 1.1 | x | 108 | -2 | 38 | 81
COc1ccc(CCNC(=O)C2CCN(Cc3nc(-c4cccc(Cl)c4)oc3C)CC2)cc1OC | x | x | -0.3 | 121 | -7 | x | x
COc1cc([N+](=O)[O-])c2nccnc2c1 | i | 0.93 | x | 96 | 2 | 33 | 70
O=C(CC(=O)N1CCN(c2ccccn2)CC1)Nc1ccc2nc3n(c(=O)c2c1)CCCCC3 | i | 0.92 | -2.1 | 114 | -5 | x | x
COC(=O)CNC(=O)C1CCN(c2nc(C)cc(C)n2)CC1 | i | 0.91 | -0.3 | 103 | -4 | 30 | 120
CCOc1ccc(C2CC(c3cccc(OC)c3)Nc3ncnn32)cc1 (stereo unspecified) | i | 0.89 | x | 97 | 5 | x | x
Cc1ccc(C(=O)Nc2ccccc2C(=O)NC(Cc2c[nH]c3ccccc23)C(=O)O)cc1 (stereo unspecified) | i | 0.99 | x | 109 | 0 | 8 | 115
CCOc1ccc(/C=C2\SC(=O)N(c3ccc(O)cc3)C2=O)cc1OC | i | 0.82 | x | 100 | x | x | x

Looked up by compound from above:
SMILES | HSV augment | HSV augment primary fold | GALR2 ag | RGS16-Gao HTS | PKD1 inh | INS promoter inh | INS promoter inh cell count
CCOc1ccc(Cc2nc(N)nc(N)n2)cc1 | i | 0.7 | -3.0 | 100 | -6 | 19 | 92
CCOc1ccc(C2CC(c3cccc(OC)c3)Nc3ncnn32)cc1 (stereo unspecified) | i | 0.89 | x | 97 | 5 | x | x

The list goes on:
SMILES | HSV augment | HSV augment primary fold | GALR2 ag | RGS16-Gao HTS | PKD1 inh | INS promoter inh | INS promoter inh cell count
CCn1c(CC(=O)Nc2ccc(C)cc2)n[nH]c1=S | i | 0.92 | x | 109 | -4 | 38 | 99
CCOC(=O)N/N=C\c1sccc1C | i | 0.97 | 0.6 | 42 | -8 | -29 | 107
O=C(c1cc([N+](=O)[O-])cc([N+](=O)[O-])c1)N1CCOCC1 | i | 1 | -0.5 | 100 | 3 | x | x
C#CCN1C(=O)C(O)(CC(=O)/C=C/c2ccco2)c2ccccc21 (stereo unspecified) | i | 0.99 | x | 109 | -1 | 21 | 130
OC1CCN(CC(O)C(F)(F)F)CC1 (stereo unspecified) | i | 1 | x | 112 | 1 | -5 | 76
O=C(O)CS/C(=C\c1ccc(F)cc1)c1nc2ccccc2s1 | i | 1 | x | 91 | -6 | 53 | 77
COc1cc(C(=S)N2CCCC2)cc(OC)c1OS(=O)(=O)c1ccc(NC(C)=O)cc1 | i | 0.89 | -1.2 | 88 | 8 | 13 | 80
COc1ccc(Oc2cn[nH]c2-c2ccc(O)cc2O)cc1 | i | 0.95 | -1.0 | 104 | 11 | 38 | 105
COc1cccc(OC)c1C(=O)OCC(=O)Nc1cccnc1Cl | i | 0.99 | x | 100 | 8 | x | x
COc1ccc(C(=O)ON=C2c3ccccc3-c3ccccc32)cc1OC | i | 0.99 | -1.2 | 108 | -10 | x | x
Cc1ccc(/C=C/C(=O)N2CCCC(C(N)=O)C2)o1 (stereo unspecified) | i | 1 | x | 102 | x | x | x
NC(=O)c1ccc(NC(=O)COC(=O)c2c3c(nc4ccccc24)/C(=C\c2cccs2)CCC3)cc1 | i | 0.55 | 2.9 | 109 | -13 | -59 | 121
COc1ccc(CCNC(=O)CSc2nc3cc(Cl)ccc3o2)cc1OC | i | 0.97 | -2.7 | 94 | -1 | -9 | 67
Oc1ccc(Cl)cc1C=NCCc1ccccc1 | i | 1.1 | -2.5 | 118 | 1 | -13 | 146
O=C(O)c1cc(NCc2ccc3c(c2)OCO3)ccc1N1CCOCC1 | i | 0.78 | 0.4 | 97 | -5 | 42 | 84

Shown as tab-separated lines: part of the list above.
molecule	HSV augment	HSV augment primary fold	GALR2 ag	RGS16-Gao HTS	PKD1 inh	INS promoter inh	INS promoter inh cell count
COc1ccccc1NS(=O)(=O)c1cccc(C(=O)NNC(=O)C(NC(N)=O)C(C)C)c1 (stereo unspecified)	i	0.95	x	103	x	x	x
COC(=O)CNC(=O)C1CCN(c2nc(C)cc(C)n2)CC1	i	0.91	-0.3	103	-4	30	120

The listing continues.
SMILES | HSV augment | HSV augment primary fold | GALR2 ag | RGS16-Gao HTS | PKD1 inh | INS promoter inh | INS promoter inh cell count
c1ccc2oc(-c3ccn[nH]3)cc2c1 | i | 0.93 | x | 100 | x | x | x
CCOC(=O)CSc1nnc(CSc2nc3sc4c(c3c(=O)[nH]2)CCCC4)n1-c1ccccc1 | i | 1 | -2.2 | 95 | -2 | 28 | 86
CSc1cccc(NC(=S)N2CCCN(Cc3cccc(Cl)c3)C2)c1 | i | 0.85 | x | 103 | -11 | 20 | 118
CC[C@H](C)C(C(=O)N1CCN(C(=O)OC(C)(C)C)CC1)n1cc(C(Cc2ccc(O)cc2)NC(=O)OC(C)(C)C)nn1 (stereo partly specified) | i | 1 | x | 103 | -1 | x | x
CC(=O)c1ccc(NC(=O)C2CC(c3ccc(F)cc3)=NO2)cc1 (stereo unspecified) | i | 1.1 | -2.0 | 112 | -10 | 33 | 60
NC(=O)c1cccnc1 | i | 0.76 | -0.3 | 65 | -6 | -27 | 33
COCCCNC(=O)c1ccc([N+](=O)[O-])c(Cl)c1 | i | 1.1 | -1.3 | 98 | 0 | 46 | 110
CCOc1ccc(C(C)=O)cc1CSc1nnnn1-c1ccc(O)cc1 | i | 0.85 | x | 92 | -8 | x | x
CCOC(=O)C1CCN(Cc2cn(C)nc2-c2ccc(Oc3ccccc3)cc2)CC1 | i | 0.9 | x | 100 | 5 | x | x
Cc1ccc(S(=O)(=O)NCC(=O)NCc2ccncc2)cc1 | i | 0.95 | -1.2 | 98 | 0 | 62 | 115
O=C(CSc1nnc(-c2ccc(O)cc2)n1-c1ccccc1)CC(=O)Nc1ccccc1 | i | 1 | -1.5 | 66 | 2 | 35 | 91
O=C(C1CCCN(S(=O)(=O)Cc2ccccc2)C1)N1CCc2ccccc21 (stereo unspecified) | i | 0.89 | -1.1 | 100 | -9 | 11 | 109
COc1ccc(OC(C)=O)c(C2c3cc(OC)c(OC)cc3CCN2C(C)=O)c1 (stereo unspecified) | i | 1 | -0.4 | 105 | 0 | -3 | 113
